Screens (PubChem)
TRPV1 potentiator = HTS Assay for Compounds that Act as Potentiators of the Vanilloid Receptor 1; TRPV1-expressing cells, Fluo-8 calcium influx, capsaicin EC20 potentiation; host cell line not named in the record; control for the full effect not named in the record; potentiation, % at 8.33 µM; hit rate 0.02% among 320,000; active means potentiation above 80%; inconclusive means 30% to 80%; inactive means below 30%; note: 0% is about no effect
Target sequence (Q8NER1 whole entry, looked up): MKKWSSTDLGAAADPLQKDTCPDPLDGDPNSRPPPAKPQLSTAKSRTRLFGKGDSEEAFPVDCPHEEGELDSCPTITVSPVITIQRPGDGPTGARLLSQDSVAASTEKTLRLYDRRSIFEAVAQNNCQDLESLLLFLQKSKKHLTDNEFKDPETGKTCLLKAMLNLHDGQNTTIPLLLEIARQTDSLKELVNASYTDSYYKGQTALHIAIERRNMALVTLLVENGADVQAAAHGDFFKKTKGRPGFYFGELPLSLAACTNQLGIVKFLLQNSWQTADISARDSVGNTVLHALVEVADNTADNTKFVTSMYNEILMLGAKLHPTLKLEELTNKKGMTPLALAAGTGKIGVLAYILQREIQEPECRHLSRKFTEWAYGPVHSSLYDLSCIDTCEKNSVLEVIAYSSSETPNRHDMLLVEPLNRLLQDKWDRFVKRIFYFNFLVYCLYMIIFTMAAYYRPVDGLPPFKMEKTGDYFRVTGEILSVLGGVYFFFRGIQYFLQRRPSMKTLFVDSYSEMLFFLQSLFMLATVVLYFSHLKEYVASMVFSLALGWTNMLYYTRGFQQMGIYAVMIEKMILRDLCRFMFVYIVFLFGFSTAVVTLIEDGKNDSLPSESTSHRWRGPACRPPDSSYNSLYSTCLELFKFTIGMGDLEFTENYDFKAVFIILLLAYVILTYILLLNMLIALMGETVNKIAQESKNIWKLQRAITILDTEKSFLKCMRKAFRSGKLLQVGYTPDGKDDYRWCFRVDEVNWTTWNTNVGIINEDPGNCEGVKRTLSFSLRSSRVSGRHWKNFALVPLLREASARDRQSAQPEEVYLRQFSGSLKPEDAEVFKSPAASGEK
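TRPV1-expressing cells were cultured overnight at 35.5C and loaded with Fluo-8 calcium dye for 40 to 90 min at room temperature. After a 10 s baseline, compound was added and calcium influx was read kinetically for 3 min (ex 480/em 520 nm).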
gsp agonist = qHTS for Agonist of gsp, the Etiologic Mutation Responsible for Fibrous Dysplasia/McCune-Albright Syndrome: qHTS. Potency, µM (series often up to 76.9 µM), for the others: at the highest dose activation (cAMP increase), most hits filed as activators. AID 624287, 2012. hit rate 0.13% among 340,000. gsp mutant cells, cAMP HTRF, 30 min; control for the full effect not named in the record; active = well fitted activation curve with a large enough effect; inconclusive = small, poorly fitted or top-dose-only effect, or another doubt; inactive = no such curve, though single readings can be large or run the other way; cell line not stated here;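 note: phosphodiesterase inhibitor Ro 20-1724 added with compounds to block cAMP breakdown; potency is the fitted concentration of half-maximal effect; nearly all actives have a fitted effect of over 60% in size; about a fifth of the inactives were tested at one dose only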
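Cells stably selected in G418 were plated at 2000/well, grown 16-24 hr, then given compounds in DMSO with the PDE inhibitor […] (300 uM solution added) for 30 min at 37C; cAMP was read by HTRF.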
gsp antag = qHTS for Antagonists of gsp, the Etiologic Mutation Responsible for Fibrous Dysplasia/McCune-Albright Syndrome: qHTS | gsp-mutant cells, cAMP HTRF, 30 min; control for the full effect not named in the record | Potency, µM (highest dose often 76.9 µM), for the others: top-dose activity change, negative = inhibition, actives largely listed as inhibitors | hit rate 0.4% among 340,000; active = falling curve of any shape with a large fitted effect; inconclusive = falling curve, mostly with a smaller effect; inactive = flat or rising curve; cell line not stated here;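 note: intracellular cAMP measured with PDE inhibitor Ro 20-1724 present during compound exposure; potency is the fitted concentration of half-maximal effect; % is set by controls: 0 for no effect and ±100 for the full control effect; nearly all actives have a fitted effect of over 65% in size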
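Measurement of cellular cAMP by homogeneous time-resolved fluorescence following a 30 min compound exposure at 37C. The PDE inhibitor […] was present throughout; the assay buffer was DPBS with 0.05% BSA and 0.005% Tween 20.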
TRPML1 blocker = qHTS for Inhibitors of the Human Mucolipin Transient Receptor Potential 1 (TRPML1); activity change, negative = inhibition, % (test concentration not listed); hit rate 0.02% among 390,000; TRPML1-inducible cells, Ca2+ dye fluorescence, FDSS; stronger effect = lower value; inhibition of EC80 agonist-evoked calcium signal; in the data active means activity change below about -50%; inconclusive means about -30% to -50%; inactive means above about -30%;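 note: stimulus is agonist 54-4 at its EC80 concentration; % is set by controls: 0 for no effect and ±100 for the full control effect; compound concentration not given in the record; the text of the record puts the active cut at -80%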
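TRPML1-DL cells, Tet-induced overnight (~16 h, 37 °C) at 1,500 cells/well, were loaded with Ca8 no-wash dye plus quencher for 45-90 min at room temperature. Compounds were pinned during FDSS kinetic reading; agonist 54-4 at EC80 (4 uM final) then added.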
Menin-MLL FL inh = qHTS Assay for Inhibitors Targeting the Menin-MLL Interaction in MLL Related Leukemias: Competition With Fluorescein Labeled MLL-derived Peptide | FP activity change, % at 61.4 µM | Fluorescence polarization, fluorescein-MLL peptide displacement from menin | 290,000 tested, under 10 active; inconclusive = falling polarisation curve, or a change in total fluorescence; inactive = total fluorescence flat and polarisation flat or rising; no compound was filed as active; the % refers to the polarisation; negative = inhibition;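 note: % of control where 0% means no effect; inhibitors lower the polarisation; unlabelled MLL peptide was the positive control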
ClpP mod = qHTS Assay for Activators of ClpP | ATP-dependent Clp protease proteolytic subunit (Bacillus subtilis (strain 168)), P80244 | purified B. subtilis ClpP, FRET peptide cleavage, 20 min | Potency, µM (top dose mostly 57.5 µM), inactives show at the top dose activity change, negative = active | hit rate 1.9% among 340,000; active = well fitted falling curve with a large enough effect; inconclusive = small, poorly fitted or top-dose-only effect; inactive = no such curve, though single readings can be large or run the other way; note: potency is the fitted concentration of half-maximal effect; the source files actives as falling curves though it sought activators and does not explain the sign; nearly all actives have a fitted effect of over 65% in size; many hits overshoot -100%
Target sequence (P80244 whole entry, looked up): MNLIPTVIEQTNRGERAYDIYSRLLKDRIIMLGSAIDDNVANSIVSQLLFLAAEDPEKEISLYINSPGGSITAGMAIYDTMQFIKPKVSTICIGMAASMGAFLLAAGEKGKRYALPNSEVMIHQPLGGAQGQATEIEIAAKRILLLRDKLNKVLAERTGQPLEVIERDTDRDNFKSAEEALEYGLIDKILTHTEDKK
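Purified B. subtilis ClpP, 10 microg/mL final in Tris/HCl pH8 with KCl, BSA, glycerol and Tween-20, cleaved an Abz/nitrotyrosine-quenched decapeptide. Fluorescence (ex 320, em 430) was read at 0 and 20 min at room temperature. Delta was normalized to 5.8 microM ADEP and DMSO/no-enzyme controls.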
Sfp inh = qHTS Assay for Inhibitors of Bacillus subtilis Sfp phosphopantetheinyl transferase (PPTase) | 4'-phosphopantetheinyl transferase ffp (Bacillus subtilis), Q9F4F7 | hit rate 3.5% among 310,000 | AID 1490, 2009 | Biochemical Sfp PPTase activity, qHTS | Potency, µM, without a hit: max response, negative = inhibition, usual class: inhibitors; active = well fitted inhibition curve with a large enough effect; inconclusive = small, poorly fitted or top-dose-only effect, or another doubt; inactive = no such curve, though single readings can be large or run the other way;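 note: the enzyme is Sfp with the accession as filed and its product quenches rhodamine fluorescence; potency is the fitted concentration of half-maximal effect; 0% = enzyme reaction without inhibitor and -100% = no enzyme wells; top concentration of the series not given in the record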
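Fluorescence-quenching assay with 15 nM Sfp, 5 uM rhodamine-CoA and 12.5 uM BHQ-2-labelled ybbR peptide in pH 7.6 Hepes/MgCl2 buffer. Enzyme was pre-incubated with compound for 15 min at room temperature. Rate was taken from the 30-min fluorescence change (525/598 nm).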
Active calls of the source: *; ? = inconclusive; nt = no result given; & = joins results of further samples; [ ] = another dose, or the depositor's remark.

SMILES | TRPV1 potentiator | gsp agonist | gsp antag | TRPML1 blocker | Menin-MLL FL inh | ClpP mod | Sfp inh
COc1ccc(-c2nnc(SCC#N)o2)cc1 | 4.2 | 2.2% | 13.1% | -16.2 | -2.0 | 2.5% | 13.1%
Cc1ccc(S(=O)(=O)NCCNc2ccc([N+](=O)[O-])cc2C(F)(F)F)cc1 | -4.4 | 11.8% | -13.7% | -2.3 | 1.2 | 0.4% | -9.6%
Cc1ccc(C(=O)NNC(=O)C(C)Oc2ccccc2F)cc1S(=O)(=O)N1CCOCC1 (stereo not given) | 7.2 | 42.3% | 3.8% | -6.9 | nt | -2.4% | nt
CC(C)CN(CC(C)C)C(=O)Nc1cccc([N+](=O)[O-])c1 | -1.6 | -6.1% | 1.3% | 10.2 | -2.4 | nt | 2.7%
Cc1ccc(N(C(=O)CCC(=O)Nc2ccccn2)C(C(=O)NC(C)C)c2ccc(F)cc2)cc1 (stereo not given) | -0.3 | -0.9%[15.4 µM] | 5.1% | -0.8 | nt | -4.9% | -0.2%
c1ccc(N2CCN(Cc3nc4ccccc4[nH]3)CC2)nc1 | -13.7 | -10.5% | 5.5% | 8.4 | 10.4&-6.5 | nt | ?
C=CCOc1ccc(/C=C2\SC(=S)N(C(C(=O)O)c3ccccc3)C2=O)cc1 (stereo not given) | 24.6 | -18.1%[15.4 µM] | ? | 18.7 | 4.5 | nt | -9.1%
COc1ccc(NC(=O)CSc2nc3ccccc3c(=O)n2CCC(=O)N2CCCCC2)cc1 | nt | -19.8% | 4.9% | -22.6 | 1.3 | -4.4% | -4.5%
COc1cc(C(=O)Oc2ccccc2/C=N/NC(=O)c2ccc(C)c(Cl)c2)cc(OC)c1OC | 0.2 | 2.9%[15.4 µM] | 1.4% | 10.3 | -1.2 | -2.3% | 8.1%
O=[N+]([O-])c1ccc(C2Nc3cccc4cccc(c34)N2)cc1 | -7.0 | ? | 32.7%[activator] | 12.7 | 0.5 | -1.1% | 22.4µM*
COCCn1c(-c2cccc([N+](=O)[O-])c2)nc2c1c(=O)[nH]c(=O)n2Cc1ccccc1 | -3.8 | -13.4%[15.4 µM] | -18.2% | 5.7 | -1.7 | nt | 7.7%
C=CCc1cc(C=O)cc(OC)c1OCc1c(Cl)cccc1Cl | -6.9 | -8.2% | 4.4% | 0.4 | -3.7 | -1.1% | 4.2%
COc1ccc(CN2CCNC(=O)C2CC(=O)N(C)C2CCOCC2)cc1OC (stereo not given) | nt | -29.5% | nt | 16.0 | nt | -3.8% | nt
Cc1ccc(N2C(N)=NC(N)=NC23CCCC3)c(C)c1 | -8.8 | ? | 5.3% | 0.1 | 5.3 | 28.2µM* | 8.6%
O=C(Nc1cccc(Cl)c1N1CCCCC1)c1ccc2c(c1)OCCO2 | -1.1 | -25.6% | 4.1% | 9.2 | 2.1 | -17.9% | 7.4%
CC(=O)NCCCC(=O)NN1C(=S)N(Cc2ccccc2)C(=O)C1CC(=O)Nc1cccc(C)c1 (stereo not given) | 4.4 | 24.9%[15.4 µM] | -8.4% | -15.3 | -0.8 | nt | 3.8%
CC(O)CNc1nc2c(c(=O)n(Cc3ccccc3)c(=O)n2C)n1C (stereo not given) | 7.9 | -11.2%[15.4 µM] | -6.4% | -4.4 | -0.7 | 0.9% | 3.1%
COc1cc(/C=C/C(=O)OCC(=O)N(CC(C)C)c2c(N)n(Cc3ccccc3)c(=O)[nH]c2=O)ccc1O | nt | 0.9% | 2.2% | ? | nt | -10.6% | nt
Cn1c(O)c(C=NC(CC(N)=O)C(=O)O)c(=O)n(C)c1=O (stereo not given) | ? | nt | nt | nt | 0.6 | nt | 14.8%
O=S(=O)(c1ccc(Oc2ccc(Br)cc2F)nc1)N1CCCCC1 | -2.0 | -4.3% | 3.8% | -9.3 | 6.8 | -1.2% | -1.5%
CCN(CC)S(=O)(=O)c1ccc2c(c1)N(CC(=O)NCc1ccccn1)C(=O)CO2 | nt | ? | -5.3% | nt | 2.2 | -2.5% | 13.2%
Cc1cc(C)cc(NC(=O)c2ccc(CNc3c(N4CCCC4)c(=O)c3=O)cc2)c1 | -2.1 | -12.3%[15.4 µM] | -15.5% | -9.0 | 0.5 | nt | 5.3%
Cc1c(Cl)cccc1-n1ccnc1SCC(=O)O | 5.5 | 8.0% | -0.4% | 7.8 | 1.6 | -0.8% | 9.3%
Cc1ccc(-c2nnc(N3CCN(C(=O)c4ccco4)CC3)c3ccccc23)cc1 | -4.2 | -22.1% | -26.9% | 0.3 | -0.9 | -1.3% | -4.7%
Cc1cccc(-n2c(-c3csc(C)c3C)n[nH]c2=S)c1 | -3.1 | 10.0% | 7.1% | 0.1 | -1.4 | -0.3% | 2.2%
O=[N+]([O-])c1ccc(O)c(CN2CCCCCC2)c1 | -13.8 | 5.4% | 9.8% | -7.2 | -5.5 | 0.5% | ?
O=c1c2ccccc2nc(CSc2nnnn2-c2ccccc2)n1-c1ccccc1Cl | -12.9 | 0.2%[15.4 µM] | 5.3% | 6.0 | 2.9 | 1.0% | -4.0%
O=C(O)c1ccc(NC(=O)c2ccccc2NC(=O)c2cccc(F)c2)cc1 | -8.1 | 1.6%[15.4 µM] | -12.6% | -9.4 | -1.7 | -8.8% | 13.3%
CCOc1ccc(CCNC(=O)c2ccc(OCc3c(C)noc3C)cc2)cc1OCC | 4.0 | 15.8%[15.4 µM] | -25.3% | -8.9 | nt | nt | nt
S=c1[nH]c2nc(Cl)c(Cl)nc2[nH]1 | nt | 12.6µM* | nt | -6.5 | nt | 4.0% | nt
COc1cccc(CNC(=O)CCC(=O)N2CC(C)Oc3ccccc32)c1OC (stereo not given) | 4.4 | -32.6%[inhibitor] | -0.8% | 2.5 | -0.9 | 0.2% | 5.6%
Cc1ccc(CNC(=O)c2ccc(CS(=O)(=O)c3ccccc3C)o2)cc1 | -16.1 | 16.7% | 8.1% | 7.9&3.6 | 2.9 | -1.4%&0.3% | 11.5%
Cc1nn(C)c(Cl)c1CN1CCN(CCC(C)C)C(CCO)C1 (stereo not given) | 12.3 | ? | 10.0% | nt | 2.2 | -0.7% | 2.7%
Cc1noc(C)c1C(=O)OCC(=O)c1ccc[nH]1 | -2.5 | 0.6% | 3.4% | 1.2 | 1.5 | 0.7% | -11.2%
CC(C)Oc1ccc(CN=C(N)N=C(N)N)cc1Cl | -6.2 | -4.9%[15.4 µM] | 15.5% | 6.1 | 3.5 | nt | 6.4%
CCN1CCN(CC(=O)Nc2cc(C)c(C)cc2[N+](=O)[O-])CC1 | 1.7 | -1.7% | 2.5% | 9.7 | 0.1 | -0.5% | -3.5%
Cc1ccc(CN2C(=O)N/C(=C/c3ccc(-c4ccc(C(=O)O)cc4)o3)C2=O)cc1 | 18.1 | 6.8% | -47.4% | nt | 14.7 | -10.6% | 17.8µM*
Cc1cccc(C(=O)OCC(=O)c2ccc3c(c2)NC(=O)CO3)c1 | nt | -17.4% | 17.6% | 10.3 | nt | -0.4% | nt
N#C/C(C(N)=O)=C1/CCCN1Cc1ccccc1 | nt | -0.5%[15.4 µM] | 9.9% | -3.4 | nt | nt | nt
CN1C(=O)c2ccccc2N(C)C1c1cccc(O)c1 (stereo not given) | 1.1 | 0.6% | -3.9% | 9.9 | 1.7 | nt | 12.3%
COc1ccc(N2CCN(C(=O)CSc3nnc(-c4cc5ccccc5cc4O)n3C)CC2)cc1 | -6.6 | ? | ? | 2.5 | -0.6 | -6.9% | 12.0%
OCCCNC(=S)NC1CCCC1 | -13.4 | -33.8%[inhibitor] | 7.0% | 8.5 | 0.5 | 0.2% | 0.7%
Cc1cc(=O)[nH]c2cc(O)ccc12 | -4.4 | -2.0% | 3.6% | 2.0 | 3.9 | 19.1% | 9.8%
O=C(CSc1ccc(Br)cc1)Nc1ccc(N2CCOCC2)cc1 | -0.8 | 4.2% | 11.3% | 0.6 | nt | -7.5% | nt
CCCOc1c(Br)cc(/C=N/O)cc1OC | 1.1 | -19.8% | 7.4% | -29.1 | 0.4 | 2.2% | 1.1%
CCc1ccc(OCCCC(=O)NCc2ccccc2)cc1 | -11.7 | -23.0% | 11.1% | -21.0 | 1.1 | -1.2% | -21.4%
CCOc1ccccc1OCC(=O)OCC(=O)c1c(C)[nH]c2ccccc12 | 8.9 | -88.4%[inhibitor] | -21.4% | -14.6 | nt | -1.5% | nt
Cc1ccc(C(=O)N(C)CC(=O)Nc2ccc(N3CCOCC3)cc2)s1 | 9.2 | -20.4%[15.4 µM] | -5.5% | 40.0 | nt | nt | nt
CCCC(=O)NNC(=O)CCC(=O)Nc1ccccc1Cl | -2.2 | -3.9% | -2.4% | -2.8 | -2.4 | 0.6% | 12.3%
Cc1ccc(NCc2nnc3n2CCCCC3)c(C)c1 | -18.3 | -34.6%[inhibitor] | 7.0% | 16.1 | -3.6 | nt | 11.3%
CC1=CC(C)C2(CO)COC(c3ccccc3O)C1C2C (stereo not given) | 15.5 | -8.7% | -20.7% | 25.8 | 2.7 | -0.1% | 16.0%
COc1ccc(NC(=O)c2ccc(COCC(F)(F)F)cc2)cc1OC | -15.7 | 10.1% | 0.8% | -2.8 | -1.1 | -1.7% | 5.1%
COc1cc(OC)c2c(-c3cccc(-c4ccc(CO)cc4)c3)cc(=O)oc2c1 | nt | nt | 2.7% | -5.7 | 0.4 | ? | -6.5%
